# Arbovirus inh: blocks arbovirus infection. arbovirus infection cell-based antiviral screen. inhibition, % at 10 µM. 0.37% of 200,000 active;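 active = inhibition from about 30%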;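 note: bluetongue infection of BSR cells; cell survival read as ATP light after 72 h; 0% = infected wells without compound and 100% = uninfected wells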
# Mtb growth: M. tuberculosis H37Rv growth inhibitors, H37Rv strain (AID 1626). M. tuberculosis H37Rv growth inhibition; higher % means a stronger effect. 0.95% of 220,000 active. one-dose inhibition, % at 10 µM; IC50 in µM for titrated hits;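 active = confirmed in a dose series; inconclusive = inhibition above 80% but not taken into the dose series; inactive = below 80% or under 30% at every dose of the series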;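 note: bacteria incubated seven days before Alamar blue readout; 0% = bacteria only wells and 100% = bacteria with antibiotic wells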
# RecA intein inh: inhibitors of M. tuberculosis RecA intein splicing; P9WHJ3; cell-free RecA intein splicing, fluorescence; inhibition, %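 (about 9 µM by stock and volumes)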; 0.75% of 290,000 active; in the data active = inhibition above about 30%; inconclusive = no clear call, values can overlap the other calls;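 note: 0% = vehicle wells and 100% = reference inhibitor control wells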
# Target sequence (P9WHJ3 whole entry, looked up): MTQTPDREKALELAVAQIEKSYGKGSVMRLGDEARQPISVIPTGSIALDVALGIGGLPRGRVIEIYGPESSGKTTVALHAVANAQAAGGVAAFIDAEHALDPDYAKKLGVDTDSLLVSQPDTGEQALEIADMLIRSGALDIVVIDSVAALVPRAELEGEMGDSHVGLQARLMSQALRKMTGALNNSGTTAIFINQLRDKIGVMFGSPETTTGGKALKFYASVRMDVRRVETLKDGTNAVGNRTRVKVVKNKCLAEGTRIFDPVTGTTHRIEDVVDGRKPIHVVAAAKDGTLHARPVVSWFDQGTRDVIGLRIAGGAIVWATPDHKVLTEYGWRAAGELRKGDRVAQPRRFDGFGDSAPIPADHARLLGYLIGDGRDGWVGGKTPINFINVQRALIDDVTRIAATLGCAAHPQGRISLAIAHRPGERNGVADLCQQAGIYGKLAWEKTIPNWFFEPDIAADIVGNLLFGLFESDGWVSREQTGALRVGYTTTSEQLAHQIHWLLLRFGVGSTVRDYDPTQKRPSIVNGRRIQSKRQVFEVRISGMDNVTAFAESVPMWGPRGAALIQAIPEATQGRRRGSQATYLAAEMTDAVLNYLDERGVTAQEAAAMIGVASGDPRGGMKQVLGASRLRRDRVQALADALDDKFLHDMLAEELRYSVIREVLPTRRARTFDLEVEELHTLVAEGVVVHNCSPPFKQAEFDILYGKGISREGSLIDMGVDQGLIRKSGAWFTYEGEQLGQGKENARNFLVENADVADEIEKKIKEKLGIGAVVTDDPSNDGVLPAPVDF
# Mtb betalactam: beta-lactam sensitization of Mtb H37Rv | M. tuberculosis H37Rv growth with meropenem, percent inhibition; hits of this screen are not shown here | inhibition, % at 25 µM | 0.27% of 330,000 active;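 active = about 74% or more and at least 40 points above the plate without the antibiotic, then above 30% in a dose series; inconclusive = first-round hits that could not be retested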;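 note: growth measured after seven days incubation then overnight dye step; 0% = bacteria only wells and 100% = bacteria with antibiotic; twin plates without the antibiotic show which effects depend on it; some results filed as inactive read as strong as hits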
# YopH PTP inh: YopH (Yersinia) phosphatase inhibition; fluorescence Ex485/Em525; inhibition, %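 (about 10 µM by stock and volumes)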; 0.16% of 140,000 active; AID 898;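 active = inhibition of 50% or more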;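 note: controls were vehicle for no effect and minimum signal wells for full effect; inactives centre near -20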
# Arbovirus inh repeat: further read-out of Arbovirus inh, marked with its call; inhibition, %; measured here: 10K subset replicate screen; many hits read low in the repeat;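 first of two repeat runs on a subset; 0% = infected and 100% = uninfected wells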
# * marks the source's active call; other numbers are inactive results; i = inactive; ? = inconclusive; / = no result given.
# A first look, 5 compounds:
SMILES,Arbovirus inh,Mtb growth,RecA intein inh,Mtb betalactam,YopH PTP inh,others
O=C(N1CCN=C1SCc1cccnc1)C12CC3CC(CC(C3)C1)C2,16,6%,14,-9,-42,
CCOc1ccc(C(=O)NCC(=O)OCc2c(F)cccc2Cl)cc1OCC,-2,0%,2.1,-1,-27,
CC(C)CCN1CCN(Cc2cccc3nonc23)CC1CCO (stereo not given),-4,7%,2.9,-3,/,
CCCOc1ccc(/C=C/C(=O)N2CCN(c3ccccn3)CC2)cc1,-14,14%,-0.4,53,/,
C/C(=N\NC(=O)c1ccoc1C)c1ccccc1,/,-12%,-2.2,2,/,

# Main list, previewed entries included:
SMILES,Arbovirus inh,Mtb growth,RecA intein inh,Mtb betalactam,YopH PTP inh,others
O=C(N1CCN=C1SCc1cccnc1)C12CC3CC(CC(C3)C1)C2,16,6%,14,-9,-42,
CCOc1ccc(C(=O)NCC(=O)OCc2c(F)cccc2Cl)cc1OCC,-2,0%,2.1,-1,-27,
CC(C)CCN1CCN(Cc2cccc3nonc23)CC1CCO (stereo not given),-4,7%,2.9,-3,/,
CCCOc1ccc(/C=C/C(=O)N2CCN(c3ccccn3)CC2)cc1,-14,14%,-0.4,53,/,
C/C(=N\NC(=O)c1ccoc1C)c1ccccc1,/,-12%,-2.2,2,/,
CN(CC(=O)Nc1ccccc1[N+](=O)[O-])Cc1ccc(Br)cc1,9,37%,3.5,70,/,
COc1ccc(Cc2nc(-c3ccc(-n4cccc4)cc3)no2)cc1,0,2%,-1.0,9,-16,Arbovirus inh repeat=1
O=C(Cc1cccc2ccccc12)N/N=C/c1ccc(Sc2cccc3cccnc23)o1,-5,/,7.5,-20,-27,
O=[N+]([O-])c1ccc(C2CNC(c3ccccc3)O2)cc1 (stereo not given),-2,-5%,/,-3,-29,
CCC(C)[C@H](NC(=O)N1CC(=O)Nc2ccccc21)C(=O)N[C@H](Cc1ccccc1)C(=O)O (stereo not given in full),/,/,1.8,-5,/,
Cc1cccc(C)c1NC(=O)CSCC(=O)c1ccc(O)c(O)c1,-4,-9%,-4.6,7,-56,
COC(=O)CNC(=O)COC(=O)C(Cc1ccccc1)NC(=O)c1ccco1 (stereo not given),-1,2%,-0.9,-2,-42,
COc1ccc(CCNC(=O)c2cc3ccccc3oc2=O)cc1,/,/,1.6,2,/,
CCOC(=O)CC(=O)CSc1nc2ccccc2c(=O)n1-c1ccc(C(=O)NCCOC)cc1,-1,-3%,-0.8,-6,6,
N#CC(c1ccccn1)(c1ncc(C(F)(F)F)cc1Cl)N1CCOCC1 (stereo not given),9,1%,1.5,0,-10,
COc1ccc(C2N(c3ccccc3)C(=S)N3CCCN23)cc1 (stereo not given),-7,0%,0.8,-2,-22,
COc1cccc(NC(=O)CNCc2ccccc2)c1,/,/,0.3,4,/,
COc1ccccc1CNC(=O)C(=O)NCC1OCCCN1S(=O)(=O)c1cccs1 (stereo not given),/,/,-1.5,-3,/,
CSc1cccc(NC(=O)c2ccc(NC3=NC4CS(=O)(=O)CC4S3)cc2)c1 (stereo not given),/,/,-0.6,-1,/,
CCn1cc(C(=O)NCc2ccccn2)c(=O)c2cc(S(=O)(=O)N3CCCCC3)ccc21,1,/,-1.3,/,-41,
CC(=O)N1CCC2(CC1)C(C#N)=C(N)Oc1c2sc2nc(C)cc(C)c12,-2,-8%,2.5,-9,-34,
O=C(c1ccco1)N1CCN(S(=O)(=O)N2CCOCC2)CC1,-4,-6%,-0.9,-2,-14,
CCCc1nc(SCC(=O)N2CCCCCC2)c2c(=O)n(C)c(=O)n(C)c2n1,/,/,-3.2,?,/,
COc1cc(CNc2ccc(N3CCN(C(C)=O)CC3)cc2)ccc1OCc1ccccc1,-10,-4%,-3.5,67,/,
N#CCOc1ccccc1P(=O)(c1ccccc1)c1ccccc1,/,/,2.2,4,/,
CCCSc1cc(N2CCOCC2)nc(-c2ccccc2Cl)n1,4,9%,12,36,-46,
O=C1/C(=C/c2cccnc2)SC(=S)N1c1ccccc1,16,-2%,2.1,1,-9,
CCCCn1c(N)c(N(CCOC)C(=O)c2cc(-c3ccncc3)nc3ccccc23)c(=O)[nH]c1=O,/,/,-1.5,-8,/,
O=C(CSc1nnc(NC(=O)c2ccccc2[N+](=O)[O-])s1)NCC1CCCO1 (stereo not given),/,/,1.4,?,/,
CNC(=O)N(O)C1N(/N=C/c2ccc(C)cc2)C(=S)SC1(C)C (stereo not given),/,/,-1.8,10,/,
N=c1c(C(=O)NC2CCCCC2)cc2c(=O)n3ccccc3nc2n1Cc1ccccc1,/,/,i,9,/,
CCC(C)[C@H](NC(=O)NCc1cccs1)C(=O)O (stereo not given in full),5,-3%,-1.0,-10,-39,
CCCCSC(=O)Nc1ccccc1,-3,4%,-3.2,-3,-40,
C=CCNC(=O)c1c(N)n(CCN2CCOCC2)c2nc3ccccc3nc12,10,2%,-94,4,-18,
Cc1[nH]n(-c2nc(-c3ccccc3)cc(=O)[nH]2)c(=O)c1CCO,1,-3%,0.5,3,/,
COc1ccc(C)cc1NC(=O)c1ccc2c(=O)n3c(nc2c1)CCCCC3,/,/,-0.8,6,/,
CCc1nnc(SCC(=O)Nc2ccc3c(c2)OCO3)n1CC,/,/,-0.4,-1,/,
C#Cc1ccc([C@@H]2C=C(C(=O)NC3CC3)O[C@H](OCC)[C@H]2CCCO)cc1,/,-10%,3.5,-4,/,
O=C(N=Nc1c(O)[nH]c2ccc(Br)cc12)c1ccccc1-n1cccc1,-22,/,-0.5,98,-15,
O=C(NCCc1ccccc1)C(c1cccs1)N(C(=O)CCl)c1ccc(Cl)cc1 (stereo not given),-41,3%,74*,73,-12,

# Retrieved by compound from above (3):
SMILES,Arbovirus inh,Mtb growth,RecA intein inh,Mtb betalactam,YopH PTP inh,others
CCc1nnc(SCC(=O)Nc2ccc3c(c2)OCO3)n1CC,/,/,-0.4,-1,/,
N=c1c(C(=O)NC2CCCCC2)cc2c(=O)n3ccccc3nc2n1Cc1ccccc1,/,/,i,9,/,
Cc1[nH]n(-c2nc(-c3ccccc3)cc(=O)[nH]2)c(=O)c1CCO,1,-3%,0.5,3,/,

# New compounds follow
SMILES,Arbovirus inh,Mtb growth,RecA intein inh,Mtb betalactam,YopH PTP inh,others
CCOC(=O)c1c(C)[nH]c(C(=O)OCC(=O)Nc2cc(C)nn2-c2ccccc2)c1C,/,/,-0.5,-10,/,
C=CCNC(=S)Nc1ccc2cn[nH]c2c1,/,2%,1.4,0,/,
O=C(OCC(=O)N1CCCC1)c1ccco1,3,-11%,0.0,-2,-45,
Cc1cc(S(=O)(=O)N(Cc2ccc(F)cc2)CC2CCCO2)ccc1-n1cnnn1 (stereo not given),1,-3%,-0.5,8,-4,
O=C(NCC(=O)N(c1ccccc1)C(C(=O)NC1CCCCC1)c1cccnc1)c1cccs1 (stereo not given),3,-5%,0.1,-6,/,
COc1ccccc1NS(=O)(=O)c1cccc(C(=O)N/N=C(\C)c2ccc(-n3ccnc3)cc2)c1,-5,-8%,-1.8,1,-2,
CO/C([O-])=N/c1c[n+](-c2ccc(C)cc2)no1,-1,4%,-0.9,-10,-5,
CCCOc1ccc(Oc2nc(-c3ccncc3)nc3ccccc23)cc1,/,2%,2.7,12,/,
COc1cccc(OCC(O)CN2CCN(CCO)CC2)c1 (stereo not given),6,-16%,-0.8,-2,-22,
CCCC(=O)N1CC(=O)Nc2ccc(C)cc2C1c1ccc(F)cc1 (stereo not given),-5,/,-1.9,-3,/,Arbovirus inh repeat=-4
Cc1cccc(NC(=O)CN(C)S(=O)(=O)c2cccs2)c1,-1,-5%,-1.9,-4,-24,
COC(=O)C1=C(C)NC(=O)NC1c1cc(Cl)ccc1OC (stereo not given),-5,-14%,3.5,1,6,
O=C(NCc1ccccc1)C1CCCN1S(=O)(=O)c1ccc(F)cc1 (stereo not given),/,/,2.8,-35,/,
CCN1CCN(Cc2ccc(NC(=O)c3ccc(C)c(NC(=O)C[C@@H]4NC(=O)[C@H](Cc5ccccc5)NC4=O)c3)cc2C(F)(F)F)CC1,/,11%,-0.8,-14,/,
CCOC(=O)c1c(NC(=O)Cc2cccs2)sc(C)c1C,1,0%,1.2,0,-39,
COc1ccc(CN2CCNC(=O)C2CC(=O)NCCSc2nccn2C)c(OC)c1 (stereo not given),2,-6%,1.1,-1,/,
O=C(Nc1cccc(F)c1)Nc1c[nH]c(=O)[nH]c1=O,/,/,1.6,3,/,
CN(C)CCN(Cc1cc2cc3c(cc2[nH]c1=O)OCCO3)C(=S)NCC1CCCO1 (stereo not given),2,4%,-2.7,-1,/,
Cc1ccc(C(=O)NNC(=O)CCN2C(=O)C3CCCCC3C2=O)cc1 (stereo not given),-6,-2%,-5.0,3,-38,
COC(=O)C1=C(C)NC(C)=C(C(=O)OC)C1c1ccc(N(C)C)cc1,0,1%,1.7,2,-25,
Cc1[nH]c(C)c(S(=O)(=O)Nc2cccc(Cl)c2C)c1C(=O)N1CCCCC1,/,/,-4.0,4,/,
COc1cc2cc(CN(Cc3cccs3)C(=S)Nc3cccc(C)c3)c(=O)[nH]c2cc1OC,-4,5%,2.0,-5,5,
O=C(O)c1ccc(CN(Cc2ccccc2)S(=O)(=O)c2ccc(Cl)cc2)cc1,/,/,3.6,4,/,
CCCCN(CC)Cc1ccc(CNC(=S)Nc2c(C)cc(C)cc2C)o1,-4,1%,0.2,-4,/,
CC(NC(=O)c1ccccc1)c1nnc(SCC(=O)NC2CCCC2)n1C (stereo not given),/,/,5.8,-4,/,
Cc1ccc(S(=O)(=O)N(C)C(=O)NC(=O)NS(=O)(=O)c2ccccc2)cc1,0,6%,-0.1,-4,/,
O=c1c2[nH]c3ccccc3c2ncn1CCC1=CCCCC1,2,-4%,-1.6,-4,-26,
CCC(c1nnnn1Cc1ccco1)N(CCc1ccccc1)Cc1cc2ccc(OC)cc2[nH]c1=O (stereo not given),-20,9%,16,48,-25,
COC(=O)CSc1nnc(CSc2nc(C)cc(C)n2)n1Cc1ccco1,5,-1%,-0.2,-2,-29,
CCc1cc2cc3c(cc2nc1SCC(=O)Nc1nnc(C)s1)OCCO3,-40,-4%,0.0,2,-10,
COc1ccc(CCNc2nc3ccccc3n3nnnc23)cc1OC,-14,-7%,-1.0,5,-12,
CCCCN(CCCC)C(=O)C1(P(=O)(c2ccccc2)c2ccccc2)CCC1,/,5%,9.2,-10,/,
O=C1Nc2ccccc2C(O)(C(=O)NCc2ccc3c(c2)OCO3)N1c1ccccc1 (stereo not given),3,-5%,3.2,6,-25,Arbovirus inh repeat=0
COc1cc(C(=O)NCC(=O)N/N=C(C)\C=C\c2ccccc2)cc(OC)c1OC,-7,-3%,0.4,-3,/,
COc1cccc(/C=c2/s/c(=C(\C#N)C(=O)N3CCOCC3)n(-c3ccccc3)c2=O)c1,6,1%,-15,3,4,
O=C(/C=C/c1ccccc1)N1CCN(CC(O)COc2ccccc2)CC1 (stereo not given),3,4%,-0.4,-8,-26,
c1ccc(-n2ncc3c2ncn2c(C4CCCCC4)nnc32)cc1,-1,6%,-0.3,/,-17,Arbovirus inh repeat=-3
CC1(C)CC(=O)C(C=NCCCN2CCOCC2)=C(O)C1,4,-2%,-0.6,-6,-51,Arbovirus inh repeat=1
CN1CCN(S(=O)(=O)c2ccc(Oc3ccc(F)c(Cl)c3)nc2)CC1,3,11%,-5.1,-2,/,
CCN1CCN(C(c2cc3cc4c(cc3[nH]c2=O)OCO4)c2nnnn2C(C)(C)CC)CC1 (stereo not given),5,-5%,-6.9,-6,-12,
Cc1cnc(NC(=O)COc2ccccc2)s1,1,-2%,-4.6,-3,-38,
CCOC(=O)/C(C#N)=C\C1=C(N2CCCC2)CC(C)(CC)OC1 (stereo not given),-1,1%,/,-4,-12,
COc1ccc(NC(=O)CCCC2CCCCC2)cc1S(=O)(=O)N1CCCCC1,0,0%,3.6,3,-33,
Cc1ccc2nc(C(C)O)[nH]c2c1 (stereo not given),6,6%,-3.9,-3,3,
O=C(Nc1ccccc1)OCCNC(=O)c1ccccc1,3,5%,0.2,-3,-17,
Cn1c(NC(=O)c2cccs2)cc(=O)n(C)c1=O,2,1%,-1.1,0,-38,Arbovirus inh repeat=2
O=C(C[n+]1cc(-c2ccc(F)cc2)n2c1CCC2)c1cccs1,/,0%,-0.4,-7,/,
O=c1[nH]c(=S)[nH]c(O)c1N=Nc1ccc(S(=O)(=O)N2CCc3ccccc32)cc1,-7,-5%,1.2,-5,/,
COc1cc(C(=O)NC2=NCCS2)cc(OC)c1OC,5,-11%,0.0,15,-15,
CCCC(C)C(=O)OCC(=O)NCc1ccc(OC)c(OC)c1 (stereo not given),4,9%,8.9,-7,/,

# Only part of the results is shown; rates above refer to the full screens.
